MbtI inh = blocks the Mycobacterium tuberculosis siderophore enzyme MbtI | P9WFX0 | purified MbtI enzyme, fluorescence intensity read-out | inhibition, %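 (about 17 µg/mL by stock and volumes)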 | actives 0.89% (n = 100,000) | AID 493033;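 active = above 50% in both replicates, above 80% if mildly self-fluorescent; inactive = the rest, strongly fluorescent compounds included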;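 note: 0% = mean of negative and 100% = mean of positive controls; one replicate is shown; some compounds called inactive have numbers as strong as hits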
Target sequence (P9WFX0 whole entry, looked up): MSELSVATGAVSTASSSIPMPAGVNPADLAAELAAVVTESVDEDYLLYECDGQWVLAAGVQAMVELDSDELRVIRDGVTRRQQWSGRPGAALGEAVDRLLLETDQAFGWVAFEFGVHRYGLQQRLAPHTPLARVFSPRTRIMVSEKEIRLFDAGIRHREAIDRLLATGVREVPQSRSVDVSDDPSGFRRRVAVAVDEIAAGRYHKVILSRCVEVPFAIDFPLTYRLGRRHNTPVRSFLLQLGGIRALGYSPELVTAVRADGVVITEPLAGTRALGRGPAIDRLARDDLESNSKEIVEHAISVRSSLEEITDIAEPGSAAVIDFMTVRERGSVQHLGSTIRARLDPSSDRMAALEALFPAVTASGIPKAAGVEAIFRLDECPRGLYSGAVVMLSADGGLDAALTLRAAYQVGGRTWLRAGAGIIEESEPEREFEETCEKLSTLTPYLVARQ
Polio RdRp inh = inhibitors of poliovirus RNA polymerase binding and polymerization; P03300; % elongation, % (compound at 16.7 µg/mL); poliovirus polymerase elongation, fluorescence polarization; active compounds read low; actives 0.66% (n = 150,000); in the data active = % elongation below about 90%; note: some results filed as inactive read as strong as hits
Mtb MenB inh = blocks the Mycobacterium tuberculosis MenB enzyme; AID 540299; actives 0.43% (n = 100,000); MenB enzyme assay, absorbance read-out; some hits fall short of the stated cut; inhibition, %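 (about 12 µg/mL by stock and volumes)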;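 active = mean of two replicates above 30%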;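 note: 0% = no compound and 100% = wells with inactive enzyme; the first replicate is given; strong numbers were not always called active; inactives centre near -10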
Target sequence (P9WNP5 whole entry, looked up): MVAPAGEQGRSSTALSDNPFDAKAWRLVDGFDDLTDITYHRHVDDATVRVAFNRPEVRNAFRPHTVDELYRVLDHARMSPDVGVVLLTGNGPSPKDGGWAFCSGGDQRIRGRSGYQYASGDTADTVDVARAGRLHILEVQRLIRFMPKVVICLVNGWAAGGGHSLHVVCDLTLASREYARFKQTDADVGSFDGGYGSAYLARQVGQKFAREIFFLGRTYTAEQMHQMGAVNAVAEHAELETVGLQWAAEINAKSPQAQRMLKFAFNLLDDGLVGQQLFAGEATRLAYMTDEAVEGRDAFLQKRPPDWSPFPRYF
Polio RdRp inh intensity = further read-out of Polio RdRp inh, marked with its call; % elongation; measured here: total intensity read-out; formula for this scale not given here;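 total fluorescence in place of polarization; lower means less elongation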
Numbers without * were called inactive; · = not tested or not shown; & = joins results of further samples.

SMILES | MbtI inh | Polio RdRp inh | Polio RdRp inh intensity | Mtb MenB inh
COCCSc1ccccc1C(=O)N1CCOCC1 | 18.4 | 99.0 | 103.0 | 15.9
COc1cc(/C=N/NC(=O)c2cc(C)n(-c3ccc(F)cc3)c2C)ccc1OC(=O)c1ccco1 | 22.4 | 95.0 | 103.0 | -24.2
CCCCC[C@H](O)/C=C/[C@@H]1[C@@H](C/C=C\CCCC(=O)O)[C@H]2CO[C@@H]1C2 | -13.8 | 102.0&98.0 | 104.0&112.0 | 1.0
CNC(=O)NC(=O)CSc1nnc(Nc2ccccc2C)s1 | 28.1 | 106.0 | 99.0 | -6.7
Cc1cc(/N=c2/c3nnnn3c3ccccc3n2C2(O)C(=O)NC(=O)NC2=O)n(-c2ccccc2)n1 | 11.9 | 98.0 | 103.0 | -5.9
CCC/C(O)=C1/C(=O)CC(c2ccccc2)CC1=NC(C)C(=O)O (stereo not given) | 19.7 | 100.0 | 103.0 | 6.9
Cc1ccccc1C(=O)OC(C)CN1CCCCC1 (stereo not given) | -1.4 | 100.0 | 101.0 | 4.5
COc1ccc(OC)c(NC(=O)CCN2CCC(C)CC2)c1 | -19.2 | 102.0 | 107.0 | -12.3
CC1O[C@]2(C)OC1[C@]1(C)OC(C)[C@H]2O1 (stereo not given in full) | 7.9 | 104.0 | 96.0 | 15.1
O=C(N/N=C/c1ccc(O)cc1)c1ccccc1 | 25.0 | 105.0 | 104.0 | -22.6
COc1ccc(SCC(=O)NCc2ccc3c(c2)OCO3)cc1 | -3.1 | 99.0 | 103.0 | -0.1
CC(NS(=O)(=O)c1ccc(Cl)cc1)C(=O)O (stereo not given) | · | 105.0 | 112.0 | -16.7
CSc1ccccc1C(=O)Nc1cccc(C(C)O)c1 (stereo not given) | · | 106.0 | 99.0 | -6.8
CN(CCOc1ccc(Cl)cc1)CN1C(=O)C2CC=CCC2C1=O (stereo not given) | -8.6 | 106.0 | 107.0 | -8.4
CCc1ccc(NC(=O)N2CCC(N(C)C(C)C)CC2)cc1 | -1.2 | 101.0 | 100.0 | 14.5
CC(NS(=O)(=O)c1ccc(C(C)(C)C)cc1)C1C2CC3CC(C2)CC1C3 (stereo not given) | -2.1 | 100.0 | 100.0 | -9.4
Cn1c2ccc(F)cc2c2n[nH]c(=S)nc21 | 18.8 | 104.0 | 104.0 | -26.1
Cc1ccc2c(CSCc3cc(=O)n4c(C)csc4n3)cc(=O)oc2c1 | 1.4 | 105.0 | 111.0 | 8.6
O=C(N/N=C/c1ccc(N2CCOCC2)cc1)c1cccs1 | -30.7 | 113.0 | 117.0 | -26.5
FC(F)(F)c1cccc(N=C=S)c1 | 14.2 | 96.0 | 97.0 | -57.6
Cc1ccc(Cn2cc[nH]c(=O)c2=O)cc1 | 6.8 | 101.0 | 102.0 | -2.1
CC(C)(C)CNC(=S)NN | -14.9 | · | · | -27.8
CN(C/C(O)=C(\C#N)c1nc2ccccc2s1)C1CCCCC1 | -11.4 | 101.0 | 103.0 | -1.2
C=CCn1cc(C=C2C(=O)OC3(CCCC3)OC2=O)c2ccccc21 | 5.3 | 102.0 | 96.0 | -48.8
O=C(O)C1CC=CCC1C(=O)NCc1cccnc1 (stereo not given) | · | 101.0 | 112.0 | -6.5
COc1ccc(NC(=S)N(Cc2c(C)noc2C)c2ccccc2)cc1 | -12.9 | 105.0 | 108.0 | 1.2
O=C(NCc1ccco1)c1ccc(COCC(F)(F)F)cc1 | -7.4 | 100.0 | 102.0 | -3.8
CC(Sc1nnc(C(C)(C)C)n1N)C(=O)Nc1ccc(Oc2ccccc2)cc1 (stereo not given) | -5.3 | 100.0 | 102.0 | 12.8
CCOC(=O)N1CCC(NC(=O)C2CCCN2C(=O)OCc2ccccc2)CC1 (stereo not given) | -20.9 | 102.0 | 101.0 | -19.4
CCCCNc1ccc2nnc(CCNC(=O)c3ccccc3)n2n1 | 3.3 | 105.0 | 110.0 | -28.9
CCc1noc(C)c1C(=O)NCc1ccc2c(c1)OCO2 | -2.8 | 100.0 | 105.0 | 6.8
O=c1[nH]n(-c2ccc(S(=O)(=O)N3CCc4ccccc43)cc2)c(=O)c2ccccc12 | 0.1 | 100.0 | 104.0 | 2.0
CN(C)c1ccc(C2Nc3ccccc3C(=O)N2CCN2CCNC2=O)cc1 (stereo not given) | -9.6 | 102.0 | 96.0 | 11.7
Cc1ccc(NC(=O)c2ccc(CSc3ccccn3)cc2)c(C)c1 | · | 107.0 | 108.0 | -26.8
O=C(CSc1ccc(Cl)cc1)Nc1cscc1S(=O)(=O)c1ccc(Cl)cc1 | -7.2 | 108.0 | 106.0 | -11.4
O=C1CC(c2ccccc2)CC(=O)C1=CN1CCCC1 (stereo not given) | 0.1 | 100.0 | 99.0 | -6.9

Exported with tabs: part of the list above
compound	MbtI inh	Polio RdRp inh	Polio RdRp inh intensity	Mtb MenB inh
CC1O[C@]2(C)OC1[C@]1(C)OC(C)[C@H]2O1 (stereo not given in full)	7.9	104.0	96.0	15.1
O=C(N/N=C/c1ccc(O)cc1)c1ccccc1	25.0	105.0	104.0	-22.6
COc1ccc(SCC(=O)NCc2ccc3c(c2)OCO3)cc1	-3.1	99.0	103.0	-0.1
CC(NS(=O)(=O)c1ccc(Cl)cc1)C(=O)O (stereo not given)	·	105.0	112.0	-16.7
CSc1ccccc1C(=O)Nc1cccc(C(C)O)c1 (stereo not given)	·	106.0	99.0	-6.8
CN(CCOc1ccc(Cl)cc1)CN1C(=O)C2CC=CCC2C1=O (stereo not given)	-8.6	106.0	107.0	-8.4
CCc1ccc(NC(=O)N2CCC(N(C)C(C)C)CC2)cc1	-1.2	101.0	100.0	14.5
CC(NS(=O)(=O)c1ccc(C(C)(C)C)cc1)C1C2CC3CC(C2)CC1C3 (stereo not given)	-2.1	100.0	100.0	-9.4
Cn1c2ccc(F)cc2c2n[nH]c(=S)nc21	18.8	104.0	104.0	-26.1
Cc1ccc2c(CSCc3cc(=O)n4c(C)csc4n3)cc(=O)oc2c1	1.4	105.0	111.0	8.6
O=C(N/N=C/c1ccc(N2CCOCC2)cc1)c1cccs1	-30.7	113.0	117.0	-26.5
FC(F)(F)c1cccc(N=C=S)c1	14.2	96.0	97.0	-57.6
Cc1ccc(Cn2cc[nH]c(=O)c2=O)cc1	6.8	101.0	102.0	-2.1
CC(C)(C)CNC(=S)NN	-14.9	·	·	-27.8
CN(C/C(O)=C(\C#N)c1nc2ccccc2s1)C1CCCCC1	-11.4	101.0	103.0	-1.2
C=CCn1cc(C=C2C(=O)OC3(CCCC3)OC2=O)c2ccccc21	5.3	102.0	96.0	-48.8
O=C(O)C1CC=CCC1C(=O)NCc1cccnc1 (stereo not given)	·	101.0	112.0	-6.5
COc1ccc(NC(=S)N(Cc2c(C)noc2C)c2ccccc2)cc1	-12.9	105.0	108.0	1.2
O=C(NCc1ccco1)c1ccc(COCC(F)(F)F)cc1	-7.4	100.0	102.0	-3.8
CC(Sc1nnc(C(C)(C)C)n1N)C(=O)Nc1ccc(Oc2ccccc2)cc1 (stereo not given)	-5.3	100.0	102.0	12.8
CCOC(=O)N1CCC(NC(=O)C2CCCN2C(=O)OCc2ccccc2)CC1 (stereo not given)	-20.9	102.0	101.0	-19.4
CCCCNc1ccc2nnc(CCNC(=O)c3ccccc3)n2n1	3.3	105.0	110.0	-28.9

Already shown: entries from further up.
SMILES | MbtI inh | Polio RdRp inh | Polio RdRp inh intensity | Mtb MenB inh
Cc1ccc(NC(=O)c2ccc(CSc3ccccn3)cc2)c(C)c1 | · | 107.0 | 108.0 | -26.8
O=C(CSc1ccc(Cl)cc1)Nc1cscc1S(=O)(=O)c1ccc(Cl)cc1 | -7.2 | 108.0 | 106.0 | -11.4
O=C1CC(c2ccccc2)CC(=O)C1=CN1CCCC1 (stereo not given) | 0.1 | 100.0 | 99.0 | -6.9

Other entries.
SMILES | MbtI inh | Polio RdRp inh | Polio RdRp inh intensity | Mtb MenB inh
C=CCN1C(=O)N(c2cccc(C)c2)C(=O)C1CC(=O)Nc1cc(OC)cc(OC)c1 (stereo not given) | -8.9 | 103.0 | 103.0 | -1.5
CC(c1nnc(SCC(=O)N2CC(=O)Nc3ccccc32)n1Cc1ccccc1)N(C)C (stereo not given) | 9.8 | 102.0 | 108.0 | -25.6
CN1CCN(C(=O)C2CCCN(S(=O)(=O)c3ccc(Br)cc3)C2)CC1 (stereo not given) | 12.9 | 99.0 | 101.0 | -9.3
CN(CC1CCCO1)S(=O)(=O)c1ccc(C(=O)Nc2sccc2C(N)=O)cc1 (stereo not given) | -9.3 | 99.0 | 110.0 | -10.4
COc1cc2[nH]c(=O)n(CCC(=O)N3CCN(c4cccc(C(F)(F)F)c4)CC3)c(=O)c2cc1OC | -5.8 | 102.0 | 103.0 | -19.1
c1ccc(CSc2nn3cnnc3s2)cc1 | -6.8 | 101.0 | 106.0 | -0.1
COCc1c(C(=O)N2CCN(S(=O)(=O)c3cccs3)CC2)oc2ccccc12 | -9.0 | 105.0 | 101.0 | -3.4
Cc1onc(-c2ccccc2)c1C(=O)NNc1ccc(C(C)(C)C)cc1 | 3.5 | 101.0 | 101.0 | -14.3
O=C(O)CCc1n[nH]c2c1CCCC2 | 10.3 | 101.0 | 99.0 | -80.6
Cc1cc(C(=O)COC(=O)C2COc3ccccc3O2)c(C)n1-c1cccc(S(=O)(=O)N2CCOCC2)c1 (stereo not given) | 5.7 | 99.0 | 104.0 | 4.5
N#CCCn1cc(/C=N/NC(=O)C23CC4CC(CC(C4)C2)C3)c(-c2ccccc2)n1 | 2.9 | 104.0 | 108.0 | -10.8
Cc1ccc(-c2ocnc2C(=O)Nc2ccccc2NC(=O)c2ccccn2)cc1 | -0.1 | 104.0 | 103.0 | -119.3
Cc1nc(CC(=O)NN)cs1 | 0.5 | 104.0 | 107.0 | -13.5
Cc1nn(C)c(C)c1NC(=S)Nc1ccc(S(=O)(=O)Nc2ncccn2)cc1 | -1.9 | 101.0 | 102.0 | -17.6
CC1=C2C(N)=C(C(=O)Nc3ccccc3)SC2NC(C(F)(F)F)=C1 (stereo not given) | 4.0 | 101.0 | 116.0 | -53.4

Source: PubChem BioAssay

Random draw from the library (roughly 1.9% active in at least one column).
